Screens as filed in PubChem BioAssay.
GALR2 ag – agonists of human galanin receptor 2 (GALR2); activation, %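 (tested at 5 µM)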; 140,000 compounds, 0.48% hits; O43603; GALR2-expressing cells, agonist activation read-out; AID 803;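 active = above mean plus 3 SD of all compounds, about 5% in these data, not always enough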;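 note: 0% = vehicle buffer wells and 100% = reference agonist at full effect; tested in CHO reporter cells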
Target sequence (O43603 whole entry, looked up): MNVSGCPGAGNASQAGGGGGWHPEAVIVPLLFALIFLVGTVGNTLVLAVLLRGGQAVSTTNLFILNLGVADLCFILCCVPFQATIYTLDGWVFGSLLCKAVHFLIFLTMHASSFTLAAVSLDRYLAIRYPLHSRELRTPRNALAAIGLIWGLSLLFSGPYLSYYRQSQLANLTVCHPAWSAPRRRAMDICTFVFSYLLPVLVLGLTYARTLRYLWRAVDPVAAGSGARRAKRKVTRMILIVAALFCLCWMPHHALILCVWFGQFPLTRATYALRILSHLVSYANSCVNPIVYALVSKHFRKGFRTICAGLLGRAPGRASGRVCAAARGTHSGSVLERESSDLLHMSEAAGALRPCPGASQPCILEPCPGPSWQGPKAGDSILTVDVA
INS promoter inh – TRM-6 insulin promoter activity inhibition; TRM-6 cells (human fetal islet line), insulin promoter-eGFP reporter, imaging; reporter expression induced with tamoxifen; 130,000 compounds, 0.9% hits; inhibition, % at 2 µM;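 active = inhibition above the mean plus 3 SD, with well images judged a real hit on visual review, cut at about 60% in these data, passing the limit was not always enough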
PKD1 inh – PKD1 (human) kinase inhibition; Q15139; 200,000 compounds, 0.056% hits; PKD1 kinase fluorescence polarization assay; inhibition, %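 (about 10 µM by stock and volumes)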;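 active = inhibition of 50% or more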;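 note: controls were vehicle for no effect and a reference inhibitor for full effect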
HSV augment – HSV replication enhancement; HSV replication augmentation in cells, fold increase; 220,000 compounds, 0.005% hits; AID 1956; maximum fold increase;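 active = peak rise of 1.5-fold or more in the series; tested in PC3 cells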;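 note: first round at 10 µM; read as green reporter fluorescence; hits show the peak of a series up to 25 µM; 1 = signal of infected wells without compound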
RGS16-Gao HTS – regulators of human RGS16-Galphao interaction; O15492+P09471; bead-based flow cytometry RGS16-Galphao binding, fluorescence; actives lie on both sides; binding response (% of control), % at 10 µM; 220,000 compounds, 0.38% hits;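 active = below 25% or above 175%, edge rows of some plates excepted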;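 note: Galphao activated by GDP with aluminum fluoride before binding; 100% = wells without compound and 0% = beads without RGS; some results beyond the cut were filed as inactive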
Target sequence (O15492 whole entry, looked up): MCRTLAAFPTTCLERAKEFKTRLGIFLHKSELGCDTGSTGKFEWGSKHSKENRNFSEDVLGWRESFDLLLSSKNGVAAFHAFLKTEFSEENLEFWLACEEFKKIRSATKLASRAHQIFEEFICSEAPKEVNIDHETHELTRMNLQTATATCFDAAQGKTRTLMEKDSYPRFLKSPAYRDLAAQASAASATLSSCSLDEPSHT
Target sequence (P09471 whole entry, looked up): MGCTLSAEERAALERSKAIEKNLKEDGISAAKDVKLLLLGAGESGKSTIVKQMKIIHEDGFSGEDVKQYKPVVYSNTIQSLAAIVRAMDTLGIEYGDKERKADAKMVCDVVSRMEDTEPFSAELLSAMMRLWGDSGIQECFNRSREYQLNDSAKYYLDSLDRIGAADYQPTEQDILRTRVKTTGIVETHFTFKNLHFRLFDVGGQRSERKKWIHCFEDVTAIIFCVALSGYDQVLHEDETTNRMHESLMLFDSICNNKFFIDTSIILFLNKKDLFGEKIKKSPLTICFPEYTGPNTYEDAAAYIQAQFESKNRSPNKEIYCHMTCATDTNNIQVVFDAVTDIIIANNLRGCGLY
INS promoter inh cell count – second read-out of INS promoter inh, no call of its own (marks repeat the call); normalized cell count, %; measured here: cell count, toxicity; reference of the scale not given here;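 cells exposed to compound for 48 h; stained nuclei by imaging scaled within each plate; lower means fewer cells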
HSV augment primary fold – second read-out of HSV augment, no call of its own (marks repeat the call); fold increase; compound at 10 µM; measured here: primary screen fold increase 10 uM; tested in PC3 cells;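 GFP signal in the first replicate; 1 = infected wells without compound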
Starred values were filed as active, the others as inactive; i = inactive; . = not tested or not shown.

SMILES	GALR2 ag	INS promoter inh	INS promoter inh cell count	PKD1 inh	HSV augment	HSV augment primary fold	RGS16-Gao HTS
CN(O)/C=N/C(=S)Nc1ccc(Cl)cc1Cl	.	.	.	0	i	0.97	99
Cc1nc(C(F)(F)F)c(C(=O)NC(=O)Nc2ccc(OC(F)(F)F)cc2)s1	-2.4	-4	73	-1	i	0.65	101
COC(=O)c1ccc(NC(=O)C23CCC(C)(C(=O)O2)C3(C)C)cc1 (configuration not stated)	-1.5	-18	81	-1	i	0.85	97
O=C(O)c1cc([N+](=O)[O-])cc2c1nnn2O	.	60	139	3	i	1	105
Cc1cnn2c(C3CC3)ccnc12	.	50	167	1	i	0.91	110
CC(C)CN(C)Cc1c(C(=O)N2CCc3ccccc3C2)nc2ccc(Cl)cn12	.	.	.	-2	i	1.1	113
CCc1c(C)nc2cc(-c3ccc(OC)c(OC)c3)nn2c1N1CCC(C)CC1	-1.6	-14	119	1	i	0.97	107
O=C(NCCn1cc(SCc2ccccc2)c2ccccc21)c1ccccc1F	-1.6	0	115	1	i	0.92	.
O=C(OCc1cccs1)c1ccccc1NS(=O)(=O)c1ccc2c(c1)OCCO2	-1.5	-8	23	-11	i	1.1	97
O=C(CSc1nncn1-c1cccnc1)N(c1ccccc1)c1ccccc1	.	14	90	-7	i	0.99	101

The closing 6 compounds of the part above come first, to join the parts.
SMILES	GALR2 ag	INS promoter inh	INS promoter inh cell count	PKD1 inh	HSV augment	HSV augment primary fold	RGS16-Gao HTS
Cc1cnn2c(C3CC3)ccnc12	.	50	167	1	i	0.91	110
CC(C)CN(C)Cc1c(C(=O)N2CCc3ccccc3C2)nc2ccc(Cl)cn12	.	.	.	-2	i	1.1	113
CCc1c(C)nc2cc(-c3ccc(OC)c(OC)c3)nn2c1N1CCC(C)CC1	-1.6	-14	119	1	i	0.97	107
O=C(NCCn1cc(SCc2ccccc2)c2ccccc21)c1ccccc1F	-1.6	0	115	1	i	0.92	.
O=C(OCc1cccs1)c1ccccc1NS(=O)(=O)c1ccc2c(c1)OCCO2	-1.5	-8	23	-11	i	1.1	97
O=C(CSc1nncn1-c1cccnc1)N(c1ccccc1)c1ccccc1	.	14	90	-7	i	0.99	101
COc1ccc(OC)c(-c2nc(C)sc2CC(=O)O)c1	-0.8	31	146	-8	i	0.73	98
C=CCNC(=S)Nc1ccc(OC)c(S(=O)(=O)N2CCOCC2)c1	.	.	.	-4	i	1.1	103
COc1ccc(N=c2oc3cc(O)ccc3cc2C(=O)NCC2CCCO2)c(OC)c1 (configuration not stated)	68*	-93	106	26	i	0.74	112
O=C(NCCCn1ccnc1)/C(=C\c1cccnc1)NC(=O)c1ccccc1Br	-0.8	-27	142	6	i	0.88	99
COc1ccc(NC(=S)N/N=C/c2cccn2Cc2ccc(F)cc2Cl)cc1	.	.	.	-2	i	0.97	105
CSc1ccccc1NC(=O)CN(c1ccccc1Br)S(C)(=O)=O	-0.1	-32	135	0	i	1	103
CCC1Oc2ccc(C)cc2N(CC(=O)N(Cc2ccncc2)Cc2ccco2)C1=O (configuration not stated)	-1.0	-73	155	-8	i	1	118
O=C(O)Cc1ccc2c(c1)N(S(=O)(=O)c1cccc(C(F)(F)F)c1)CC(C(=O)O)O2 (configuration not stated)	-1.3	-27	108	3	i	0.51	98
Cc1nn(C(C)C(=O)N2CCc3ccccc32)c(C)c1[N+](=O)[O-] (configuration not stated)	-2.1	.	.	11	i	0.92	99
CCc1nc(SCC(=O)N2CCCC2)c2ccccc2n1	-0.8	.	.	2	i	0.88	103

Three compounds already listed, sorted by number of heavy atoms, rising.
SMILES	GALR2 ag	INS promoter inh	INS promoter inh cell count	PKD1 inh	HSV augment	HSV augment primary fold	RGS16-Gao HTS
Cc1nc(C(F)(F)F)c(C(=O)NC(=O)Nc2ccc(OC(F)(F)F)cc2)s1	-2.4	-4	73	-1	i	0.65	101
O=C(CSc1nncn1-c1cccnc1)N(c1ccccc1)c1ccccc1	.	14	90	-7	i	0.99	101
CC(C)CN(C)Cc1c(C(=O)N2CCc3ccccc3C2)nc2ccc(Cl)cn12	.	.	.	-2	i	1.1	113

GALR2 ag: hit marks shown above.
Compound,GALR2 ag,PKD1 inh,HSV augment,HSV augment primary fold,RGS16-Gao HTS
COc1ccc(N=c2oc3cc(O)ccc3cc2C(=O)NCC2CCCO2)c(OC)c1 (configuration not stated),68*,26,i,0.74,112

Other records follow.
SMILES	GALR2 ag	INS promoter inh	INS promoter inh cell count	PKD1 inh	HSV augment	HSV augment primary fold	RGS16-Gao HTS
Cc1noc(NS(=O)(=O)c2ccc(NC(=O)C(CC(C)C)N3C(=O)c4ccccc4C3=O)cc2)c1C (configuration not stated)	.	.	.	.	i	1	103
CCNS(=O)(=O)c1ccc(NS(=O)(=O)c2cc(C)ccc2C)cc1	-0.4	-21	104	-2	i	0.91	104
Cc1ccc(C(=O)C2CCNCC2)cc1	-1.1	19	94	15	i	1	101
CN(/C=C/C(=C\C=[N+](C)c1ccccc1)OCCCS(=O)(=O)[O-])c1ccccc1	.	.	.	0	i	1.2	93
CCC1CCCCN1C(=O)Cn1nc([N+](=O)[O-])c(Cl)c1C (configuration not stated)	.	-23	77	0	i	0.96	103
COc1ccccc1NC(=S)Nc1ccccn1	44*	.	.	-7	i	0.89	103
CC(C)Sc1nc(N)c2c3c(sc2n1)CN(C)CC3	-2.4	0	111	-5	.	.	91
COc1ccc(OCC(=O)NC(=S)Nc2ccc(N3CCOCC3)c(Cl)c2)cc1	-2.2	17	131	-7	i	0.78	103
O=C(c1ccccc1)C(C(=O)N1CCCCC1)n1ccccc1=O (configuration not stated)	.	-12	83	0	i	0.93	79
CC1CN(c2ccc(Cl)nn2)CC(C)O1 (configuration not stated)	.	-92	70	-3	i	1	103

Sorted by the number under RGS16-Gao HTS (highest first): some entries from above
| SMILES | RGS16-Gao HTS |
| --- | --- |
| CCNS(=O)(=O)c1ccc(NS(=O)(=O)c2cc(C)ccc2C)cc1 | 104 |
| CC1CN(c2ccc(Cl)nn2)CC(C)O1 (configuration not stated) | 103 |
| CN(/C=C/C(=C\C=[N+](C)c1ccccc1)OCCCS(=O)(=O)[O-])c1ccccc1 | 93 |
| CC(C)Sc1nc(N)c2c3c(sc2n1)CN(C)CC3 | 91 |

Carrying on.
SMILES	GALR2 ag	INS promoter inh	INS promoter inh cell count	PKD1 inh	HSV augment	HSV augment primary fold	RGS16-Gao HTS
Cc1cn(C(=O)c2ccccc2)c(=S)n1-c1ccc(Cl)cc1	0.0	21	92	1	i	0.97	113
O=C(Nc1cccc(-c2cn3cccnc3n2)c1)Nc1ccccc1F	.	.	.	-5	i	0.87	106
COc1ccc(C)cc1-n1nnnc1SCc1nc2ccccc2s1	-0.7	.	.	15	.	.	101
COc1ccc(CCNC(=O)c2cc(C3CC3)on2)cc1OC	.	.	.	.	i	1	101
Cc1onc(-c2ccccc2)c1C(=O)N=C(N)c1ccc(Cl)cc1	.	.	.	.	i	1.1	105
O=C(CCCN1C(=O)c2ccccc2C1=O)Nc1nncs1	-1.3	-43	123	-2	i	1.1	107
O=Cc1ccc(OCC(=O)N2CCOCC2)cc1	.	.	.	-1	i	1	102
CCCOc1ccc(N2C(=O)CC(N3CCC(c4nncn4CC)CC3)C2=O)cc1 (configuration not stated)	-2.0	46	76	0	i	0.89	98
O=C1c2oc3ccccc3c(=O)c2C(c2cccs2)N1CCCN1CCOCC1 (configuration not stated)	-1.3	.	.	-2	i	1.2	97
Cn1ncc([N+](=O)[O-])c1C(=O)Nc1ccc(-c2nc3ccccc3o2)cc1	.	-43	170	-1	i	0.95	103
CCc1cc2c(N=Nc3c(O)[nH]c4ccccc34)ncnc2s1	-1.5	.	.	-6	i	0.93	95
CSc1nc(SCCO)c2sc3nc(-c4ccco4)c4c(c3c2n1)CC(C)(C)OC4	6.3*	9	148	11	.	.	92
COc1ccc(CN2C(=O)c3ccccc3C2=O)cc1C(=O)OCC(=O)NC1CCCCC1	0.0	-24	115	-5	i	0.96	109
CC(=O)Nc1ccc(C2NC(=O)c3ccccc3O2)cc1 (configuration not stated)	-1.6	.	.	0	i	0.79	-84
Cc1ccc(C(=O)n2c(-c3ccccc3)cnc2SCC(=O)Nc2ccccc2)cc1	-2.8	7	137	-4	i	0.98	98
CC(=NCCc1c(C)[nH]c2ccc(C)cc12)C1=C(O)CC(c2ccccc2)CC1=O (configuration not stated)	-2.6	-51	78	2	i	0.69	102
COc1cccc(C(=O)Nc2ccc(Cl)c(C(F)(F)F)c2)c1	-2.0	-8	111	-4	i	0.86	95
CC1=C(C(N)=O)C(c2cccnc2)n2nc(-c3cccc(C)c3)nc2N1 (configuration not stated)	-1.0	44	118	3	i	0.81	99
C=CCOc1ccc(CNn2cn[nH]c2=S)cc1	-3.4	32	76	12	i	0.99	124
CCCN1CCC(=NNc2ccc(C(=O)O)cc2)CC1	.	.	.	-1	i	0.96	98
Cc1oc(S(=O)(=O)N2CCCC2)cc1C(=O)Nc1ccccc1	.	.	.	.	i	1.1	101
Cc1ccccc1NC(=S)NC1CCN(Cc2ccccc2)CC1	-0.8	-13	79	-7	i	1	108
O=C(N/N=C/c1ccc(-c2ccccc2[N+](=O)[O-])o1)[C@H]1C[C@@H]1c1ccccc1	-1.8	37	83	-3	i	1.2	99
c1ccc2c(c1)nc(N1CCCCCC1)c1ccccc12	.	.	.	.	i	0.99	101
Cc1ccc(S(=O)(=O)N(C)C)cc1-n1c(SCC(=O)Nc2ccccc2)nc2ccccc2c1=O	-0.7	0	57	-8	i	0.77	130
O=C(c1ccco1)N1CCN(Cc2nc3ccccc3c(=O)n2-c2ccc(F)cc2)CC1	-0.2	.	.	-2	i	0.95	93
O=C(Cn1cnc2ccc(Cl)cc2c1=O)c1cccs1	-1.7	6	133	1	i	0.85	98
Cc1c(C(=S)NC(=O)C2CC2)c(=O)n(-c2ccccc2)n1C	.	-14	106	-7	i	1.2	103
Cc1nn(C)cc1/C=N/n1nnnc1N	-0.2	.	.	13	i	0.86	94
COc1ccccc1NS(=O)(=O)c1cc(NC(=O)c2ccc3ccccc3n2)ccc1Cl	-2.1	17	77	0	i	1	110
Cn1cc(S(=O)(=O)Nc2ccc(OC(F)(F)F)cc2)c(=O)n(C)c1=O	.	.	.	.	i	1	101
CCc1ccccc1N(C(C)=O)c1nc(CCl)cs1	.	.	.	-7	i	0.98	99
O=C(NC1CCS(=O)(=O)C1)OC1CCCCC1 (configuration not stated)	-0.7	-40	123	3	i	1.3	100
CC1CCCC(C(=O)O)N1C(=O)CCSC(=O)c1ccccc1 (configuration not stated)	-3.5	21	139	-14	i	0.94	98
Cc1ccc(/C(O)=C2\C(=O)C(=O)N(CCCN(C)C)C2c2ccccn2)cc1 (configuration not stated)	0.7	14	61	0	.	.	.
CCCC(=O)NC1=C(C#N)C2(CCCCC2)Cc2ccccc21	-0.8	-66	99	4	i	0.94	103
O=C(NNS(=O)(=O)c1ccccc1)c1cccnc1	.	.	.	.	i	1	97
Cc1cc(C)cc(NS(=O)(=O)c2ccc3[nH]cc(C(=O)N4CCc5ccccc54)c(=O)c3c2)c1	-1.1	65	64	0	i	1	98
CC(NC(=O)C12CC3CC(CC(C3)C1)C2)C(=O)N/N=C/C1=C(N2CCOCC2)C(=C\c2cccc([N+](=O)[O-])c2)/CC1 (configuration not stated)	0.2	50	60	-10	i	0.75	93
Cc1ccc(N2C(=O)c3ccc(C(=O)O)cc3C2=O)cc1C	-0.8	-30	106	-5	i	0.65	140
COc1ccccc1C1/C(=C(/O)c2ccc(C)cc2)C(=O)C(=O)N1CC(C)O (configuration not stated)	-1.3	-12	100	2	i	0.96	103
O=C(NNc1cccc(Cl)n1)Nc1ccccc1	-3.1	36	114	-3	i	0.92	108
O=C(Cc1ccccc1)N[C@@H](Cc1ccccc1)C(=O)O	.	.	.	2	i	1.2	104
Cc1ccnc2nc(C(=O)NC3=NCCS3)nn12	-2.3	.	.	-5	i	0.89	110
C=CCN1C(=NC(=O)CCCC(=O)O)SC2CS(=O)(=O)CC21 (configuration not stated)	-2.0	.	.	13	i	0.57	100
Cc1ccccc1CNC(=O)c1ccccc1NS(C)(=O)=O	.	.	.	12	i	1.1	98
C/C(=N\Nc1ccc([N+](=O)[O-])cc1)c1ccc(-n2nncc2C(C)(C)C)cc1	-0.6	.	.	10	i	1.1	86
CC(C)c1ccccc1NC(=O)c1cccc(NC(=O)c2ccccc2)c1	-4.7	-52	111	0	i	0.98	93
O=C1CC(c2ccc(F)cc2)c2cc3c(cc2N1)CCC3 (configuration not stated)	-1.8	.	.	-1	i	0.92	107
